# D2 potentiator = positive allosteric modulators of human D2 dopamine receptor; P14416; DiscoveRx D2 beta-arrestin cells, luminescence, 90 min; 100% = 57 uM dopamine signal; potentiation, % (test concentration not listed); 360,000 compounds, 0.23% hits; active = potentiation of 50% or more; inconclusive = 30% to 50%; inactive = 30% or less;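 note: compound concentration not given in the record; tested on top of an EC20 dose of dopamine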
#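 PathHunter beta-arrestin assay in DiscoveRx D2 cells. Compounds were added with an EC20 of dopamine (50 nM final) for 90 min at 37 deg C. Luminescence was read 1 h after detection reagent, with 57 uM dopamine as the EC100 control.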
# ClpP mod = qHTS Assay for Activators of ClpP. ATP-dependent Clp protease proteolytic subunit (Bacillus subtilis (strain 168)), P80244. purified B. subtilis ClpP, FRET peptide cleavage, 20 min. Potency, µM (doses to about 57.5 µM), for the others: at the top dose activity change, negative = active. 340,000 compounds, 1.9% hits. AID 651965, 2013; active = well fitted falling curve with a large enough effect; inconclusive = small, poorly fitted or top-dose-only effect; inactive = no such curve, though single readings can be large or run the other way; note: potency is the fitted concentration of half-maximal effect; the source files actives as falling curves though it sought activators and does not explain the sign; nearly all actives have a fitted effect of over 65% in size; many hits overshoot -100%
# Target sequence (P80244 whole entry, looked up): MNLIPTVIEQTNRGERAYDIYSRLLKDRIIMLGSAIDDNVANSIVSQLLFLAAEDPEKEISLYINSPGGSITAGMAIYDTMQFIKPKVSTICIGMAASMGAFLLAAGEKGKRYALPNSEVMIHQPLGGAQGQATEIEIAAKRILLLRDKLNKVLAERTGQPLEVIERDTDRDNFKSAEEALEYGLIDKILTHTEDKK
#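 Buffer: 100 mM Tris/HCl pH8, 100 mM KCl, 0.05% low protease BSA, 2.5% glycerol, 0.01% Tween-20. ClpP 10 microg/mL final; 20 min RT; delta FRET normalized to ADEP and DMSO controls.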
# gsp antagonist = gsp mutant antagonism; gsp-mutant cells, cAMP HTRF, 30 min; control for the full effect not named in the record; Potency, µM (doses to about 76.9 µM), for inactives: at the top dose activity change, negative = inhibition, actives largely listed as inhibitors; 340,000 compounds, 0.4% hits; active = falling curve of any shape with a large fitted effect; inconclusive = falling curve, mostly with a smaller effect; inactive = flat or rising curve; cell line not stated here;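 note: intracellular cAMP measured with PDE inhibitor Ro 20-1724 present during compound exposure; potency is the fitted concentration of half-maximal effect; % is set by controls: 0 for no effect and ±100 for the full control effect; nearly all actives have a fitted effect of over 65% in size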
#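 HTRF cAMP measurement after 30 min RT detection following 30 min, 37C compound treatment alongside […] (added as 300 uM solution) in G418-selected cells seeded at 2000/well and grown 16–24 h.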
# Sfp inh = Sfp phosphopantetheinyl transferase inhibition; Q9F4F7; Biochemical Sfp PPTase activity, qHTS; Potency, µM, for the others: max response, negative = inhibition, actives largely listed as inhibitors; 310,000 compounds, 3.5% hits; active = well fitted inhibition curve with a large enough effect; inconclusive = small, poorly fitted or top-dose-only effect, or another doubt; inactive = no such curve, though single readings can be large or run the other way;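 note: the enzyme is Sfp with the accession as filed and its product quenches rhodamine fluorescence; potency is the fitted concentration of half-maximal effect; 0% = enzyme reaction without inhibitor and -100% = no enzyme wells; top concentration of the series not given in the record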
#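 Buffer: 50 mM Hepes-Na pH 7.6, 10 mM MgCl2, 0.01% Nonidet P-40, 0.01% BSA. Enzyme 15 nM, pre-exposed to compound 15 min; substrates then added and fluorescence change tracked over 30 min.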
# gsp agonist = agonists of gsp mutant (McCune-Albright syndrome); gsp mutant cells, cAMP HTRF, 30 min; control for the full effect not named in the record; Potency, µM (doses to about 76.9 µM), for inactives: at the highest dose activation (cAMP increase), hits mostly activators; 340,000 compounds, 0.13% hits; AID 624287; active = well fitted activation curve with a large enough effect; inconclusive = small, poorly fitted or top-dose-only effect, or another doubt; inactive = no such curve, though single readings can be large or run the other way; cell line not stated here;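 note: phosphodiesterase inhibitor Ro 20-1724 added with compounds to block cAMP breakdown; potency is the fitted concentration of half-maximal effect; nearly all actives have a fitted effect of over 60% in size; about a fifth of the inactives were tested at one dose only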
#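 Cells in DMEM/10% FBS with G418 were pretreated with compounds in DMSO plus […] (300 uM stock) for 30 min at 37C. cAMP was measured by HTRF (cAMP-d2 plus anti-cAMP antibody-K) after 30 min at room temperature.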
# Menin-MLL FL inh = menin-MLL binding inhibition, fluorescein peptide | Fluorescence polarization, fluorescein-MLL peptide displacement from menin | FP activity change, % at 61.4 µM | 290,000 tested, under 10 active; inconclusive = falling polarisation curve, or a change in total fluorescence; inactive = total fluorescence flat and polarisation flat or rising; no compound was filed as active; the % refers to the polarisation; negative = inhibition;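 note: % of control where 0% means no effect; inhibitors lower the polarisation; unlabelled MLL peptide was the positive control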
# TRPV1 PAM = human TRPV1 potentiation. potentiation, % at 8.33 µM. TRPV1-expressing cells, Fluo-8 calcium influx, capsaicin EC20 potentiation; host cell line not named in the record; control for the full effect not named in the record. 320,000 compounds, 0.02% hits. AID 540277. Q8NER1; active means potentiation above 80%; inconclusive means 30% to 80%; inactive means below 30%; note: 0% is about no effect
# Target sequence (Q8NER1 whole entry, looked up): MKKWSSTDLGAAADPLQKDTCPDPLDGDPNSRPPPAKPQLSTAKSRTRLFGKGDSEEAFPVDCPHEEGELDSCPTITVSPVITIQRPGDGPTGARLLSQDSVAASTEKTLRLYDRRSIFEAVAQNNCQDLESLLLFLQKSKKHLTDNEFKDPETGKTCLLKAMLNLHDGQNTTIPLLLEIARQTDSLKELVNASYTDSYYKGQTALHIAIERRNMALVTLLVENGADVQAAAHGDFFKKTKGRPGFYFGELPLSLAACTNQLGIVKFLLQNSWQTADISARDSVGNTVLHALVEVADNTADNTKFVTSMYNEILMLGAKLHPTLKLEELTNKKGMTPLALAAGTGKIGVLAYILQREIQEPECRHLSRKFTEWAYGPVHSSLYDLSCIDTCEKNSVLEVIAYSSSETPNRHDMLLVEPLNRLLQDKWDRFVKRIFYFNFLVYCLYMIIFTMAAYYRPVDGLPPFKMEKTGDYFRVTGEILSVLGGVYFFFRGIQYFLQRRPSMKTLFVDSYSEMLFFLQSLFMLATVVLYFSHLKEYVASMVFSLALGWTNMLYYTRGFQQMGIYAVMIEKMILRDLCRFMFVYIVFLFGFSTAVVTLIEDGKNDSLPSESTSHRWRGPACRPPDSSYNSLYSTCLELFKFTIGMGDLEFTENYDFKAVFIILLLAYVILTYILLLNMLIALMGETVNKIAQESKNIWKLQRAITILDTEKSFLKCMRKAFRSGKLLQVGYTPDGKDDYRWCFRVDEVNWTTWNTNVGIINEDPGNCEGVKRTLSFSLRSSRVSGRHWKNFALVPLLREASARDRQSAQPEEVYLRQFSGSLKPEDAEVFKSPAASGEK
#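 Fluo-8 calcium influx in TRPV1-expressing cells, kinetic read (ex 480/em 520 nm). Compound added and read 3 min for agonist activity, followed by capsaicin at EC20 final and 2 min further read for enhancement.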
# An asterisk follows results filed as active; u = inconclusive; x = no result given; & = joins results of further samples; [ ] = remark or other dose.
# Below each SMILES – D2 potentiator	ClpP mod	gsp antagonist	Sfp inh	gsp agonist	Menin-MLL FL inh	TRPV1 PAM
> CN(CC(=O)Nc1ccccc1C(F)(F)F)C(=O)CSc1nnnn1C
→ -5	x	10%	6%	0%	4.7	4
> Cc1ccc(S(=O)(=O)Nc2nc3ccccc3nc2NCC2CCCO2)cc1C (stereo unspecified)
→ -13	3.2%	-16%	11%	-24%	-1.7	8
> Cc1ccc(NC(=O)CCCCCN2C(=O)[C@@H]3Cc4ccccc4CN3C2=O)c(C)c1
→ -19	-0.5%	-14%	16%	2%	x	9
> CC(C)(C)C(=O)Nc1cccc(-c2ccc[nH]2)n1
→ -2	13µM*	5%	x	24%	x	x
> O=S(=O)(c1cc(Cl)c(Cl)cc1Cl)N1CCN2CCCC2C1 (stereo unspecified)
→ -4	0.7%	2%	-3%	-5%	0.0	-14
> O=C(N[C@@H](Cc1ccccc1)C(=O)OCc1ccccc1)c1nc[nH]c1C(=O)N1CCc2ccccc2C1
→ -3	-2.1%	-7%	7%	x	4.7	2
> COc1ccc(S(=O)(=O)N2CCN(C)CC2)cc1NC(=O)c1ccccc1C
→ -4	x	1%	18%	-6%	-7.5	-7
> CCC(=O)Nc1ccc2c(c1)nc(CCN1CCN(C)CC1)n2C
→ 4	-7.5%	11%	4%	17%	-0.1	-3
> Cc1ccc(S(=O)(=O)N(CC(=O)Nc2ccc(Cl)cc2)C(=O)N2CCN(C)CC2)cc1
→ -13	-9.1%	3%	x	4%	x	-5
> COc1ccccc1CN1CCN(Cc2nc(-c3ccccc3)no2)CC1
→ -17	1.8%	-4%	5%	9%	u	0
> COc1ccc(C(=O)NCCS(=O)(=O)N(C)Cc2ccccc2)cc1
→ -9	0.5%	5%	x	3%	x	-27
> COc1ccc(CC(=O)OCC(=O)NC2CC2)cc1
→ -1	0.1%	1%	x	39%	x	21
> O=C(O)CCC(=O)NNC(=O)c1cccc(Br)c1
→ -10	-0.3%	7%	18%	-25%	3.1	-21
> Cc1nn(-c2ccccc2)c(Cl)c1CN(C(=O)CCl)c1cccc2ccccc12
→ -19	-1.9%	u	-6%	u	8.1	-4
> COc1ccc(Cl)cc1-c1n[nH]c(=S)o1
→ -7	u	-1%	-1%	14µM*	-2.2	6
> CC1(C)Oc2ccc3ccc(=O)oc3c2/C(=C/Nc2cccc(O)c2)C1=O
→ 14	x	-10%	-6%	8%	-5.2	9
> CC(=O)Nc1ccc(S(=O)(=O)NCc2ccc(C(=O)NC(C)c3ccccc3)cc2)cc1 (stereo unspecified)
→ -2	-1.0%	0%	1%	-39%[inhibitor]	2.2	-2
> CCOc1ccc(NC(=O)Cn2nnc(-c3ccccc3NC(=O)CC)n2)cc1
→ 9	-0.9%	-4%	-14%	u	-1.8	14
> COCCNC(=O)C(=O)N/N=C(\C)CC(=O)Nc1cccnc1
→ -5	-2.8%	6%	2%	7%[15.4 µM]	0.6	-9
> Cc1cc(C)nc(NC(N)=NC(C)c2ccccc2)n1 (stereo unspecified)
→ -11	x	x	-5%	11%[15.4 µM]	-0.5	5
> Cc1sc2nc(SCC(=O)N(C)c3ccccc3)n(C)c(=O)c2c1C
→ -12	-1.2%	-21%	0%	-25%	x	-10
> Cc1ccc(NC(=O)c2ccc(OCc3c(C)noc3C)cc2)c(C)c1
→ 0	0.0%	-9%	x	-19%	x	-15
> COC(=O)c1sccc1Oc1ccc(Cl)cc1N1C(=O)CCC1=O
→ -5	1.1%	7%	19%	-3%[15.4 µM]	0.4	0
> CCN(CC)CCCNC(CC(=O)Nc1cccc([N+](=O)[O-])c1)C(=O)O (stereo unspecified)
→ -9	0.4%	17%	-15%	-15%	2.1	7
> Cc1cc(C(=O)N2CCCC(CCC(=O)N3CCN(c4ccccn4)CC3)C2)c(C)o1 (stereo unspecified)
→ 1	u	-7%	7%	14%	-1.1	3
> COc1ccc(-n2ncc3c(SCC(=O)N4CCN(c5ccccc5OC)CC4)ncnc32)cc1
→ 4	-15%	-4%	12%	-4%	2.2	u
> COc1cccc(NC(=O)CCNS(=O)(=O)c2ccc(Br)s2)c1
→ -8	u	-10%	14%	-4%[15.4 µM]	-5.4	1
> O=C(c1ccc(CN2CCc3ccccc3C2)cc1)N1CCc2ccccc2C1
→ -8	5.1%	17%	14%	-22%	-1.0	-17
> Cc1cc(C(=O)NC(C)CCc2ccccc2)ccc1[N+](=O)[O-] (stereo unspecified)
→ -11	x	-1%	11%	u	4.5	-17
> O=C(CN1C(=O)NC2(CCCC2)C1=O)N1CCN(C(=O)c2ccco2)CC1
→ 1	0.4%	-2%	11%	1%	1.1	-17
> CCOCc1c(C(=O)N2CCN(CCOc3ccc(Cl)cc3)CC2)oc2ccccc12
→ -21	x	-10%	x	-9%[15.4 µM]	x	8
> CNCC(=O)Nc1ccc(Cl)c(C(F)(F)F)c1
→ -22	-1.9%	-13%	-5%	-49%[inhibitor]	9.0	-13
> COCCN(C(=O)c1ccco1)c1nnc(-c2ccc(F)cc2)s1
→ -5	-29%	-6%	15%	-35%[15.4 µM]	-2.6	0
> COc1ccccc1N1CCN(CCN2C(=O)C3CCCN3C2=O)CC1 (stereo unspecified)
→ -30	0.5%	11%	-5%	-9%[15.4 µM]	-3.6	-7
> COc1ccccc1CCC(=O)N(CCC1=CCCCC1)c1c(N)n(Cc2ccccc2)c(=O)[nH]c1=O
→ -10	-3.2%	0%	x	-54%	x	12
> Cc1cc(NS(=O)(=O)c2ccc(NC(=O)c3c(F)c(F)c(F)c(F)c3F)cc2)nc(C)n1
→ 8	1.4%	-2%	8%	-66%[inhibitor]	x	1
> Cc1ccc(CNC(=O)C2CCCN2C(=O)NCc2ccccc2)cc1 (stereo unspecified)
→ 11	-1.1%	1%	8%	-1%	4.3	-21
> COc1ccc(CC(=O)OCc2nnc(-c3ccccc3)o2)cc1
→ -1	0.9%	8%	12%	-27%	-2.9	-9
> COc1ccc(CCN(C)C(=O)C2CC(=O)N(Cc3ccc(C)cc3)C2)cc1OC (stereo unspecified)
→ -3	-0.8%	8%	x	-44%[inhibitor]	x	10
> CCCS(=O)(=O)N1CCN(C(=O)COc2ccccc2)CC1
→ -1	-2.2%	11%	-3%	22%	-3.0	6
> O=C(NCc1ccco1)C(c1ccco1)N(CCc1ccccc1)C(=O)Cn1nnc2ccccc21 (stereo unspecified)
→ -6	-0.3%	-8%	u	u	2.6	-8
> Clc1ccccc1-c1nnc(-c2cccs2)o1
→ -7	x	3%	9%	u	3.9	-7
> CCOc1cc(C)c(S(=O)(=O)NC2CC(C)(C)NC(C)(C)C2)cc1C
→ -7	x	15%	0%	u	-1.0	12
> O=C(Cn1cnc2c(NCc3ccccc3)ncnc21)NCC1CCCO1 (stereo unspecified)
→ -8	-0.8%	-6%	x	x	x	x
> Cc1ccc2c(c1)N(CCC(=O)NCCCN1CCCC1)C(=O)CO2
→ -12	x	10%	10%	11%	1.0	-8
> COc1ccc(C(=O)C(CCCCC(CN(C)C)C(=O)c2ccc(OC)cc2)CN(C)C)cc1 (stereo unspecified)
→ -35	0.2%	26%	18%	-3%	-1.3	6
> COc1ccc(NC(=O)CN2C(=O)COc3ccc(C)cc32)c(OC)c1
→ -1	-0.4%	0%	6%	6%[15.4 µM]	4.1	-1
> COC(=O)c1noc(C)c1-c1ccnn1C(=O)c1ccc(Cl)cc1
→ -25	-0.1%	6%	-5%	7%	-0.9	1
> COc1ccc(-c2nc(CS(=O)(=O)CC(=O)NC3CCCCCC3)c(C)o2)cc1
→ -1	-9.8%	-1%	-3%	-35%[inhibitor]	x	-16
> CSc1nc(C)cc(-n2ccc(=O)[nH]c2=O)n1
→ 6	-4.8%	11%	18%	-9%	-0.8	-1

# 2 entries from above, field by field:
> Cc1ccc2c(c1)N(CCC(=O)NCCCN1CCCC1)C(=O)CO2
  D2 potentiator: -12
  ClpP mod: x
  gsp antagonist: 10%
  Sfp inh: 10%
  gsp agonist: 11%
  Menin-MLL FL inh: 1.0
  TRPV1 PAM: -8

> COc1ccc(C(=O)C(CCCCC(CN(C)C)C(=O)c2ccc(OC)cc2)CN(C)C)cc1 (stereo unspecified)
  D2 potentiator: -35
  ClpP mod: 0.2%
  gsp antagonist: 26%
  Sfp inh: 18%
  gsp agonist: -3%
  Menin-MLL FL inh: -1.3
  TRPV1 PAM: 6

# Later entries.
# Below each SMILES – D2 potentiator	ClpP mod	gsp antagonist	Sfp inh	gsp agonist	Menin-MLL FL inh	TRPV1 PAM
> CC(C)CNC(=O)c1coc(=O)c(Br)c1
→ -10	3.1%	-1%	21%	-4%	5.0	11
> O=C(Nc1ccc(F)cc1)NC1CCCCC1
→ -5	-3.6%	0%	1%	2%	0.8	4
> Cc1ccc(S(=O)(=O)N2CCCCC2CCNC(=O)C(=O)NC2CCCC2)cc1 (stereo unspecified)
→ -19	0.0%	-11%	x	-4%[15.4 µM]	x	-7
> COc1ccc(C(=S)Nc2ccc(C)cc2)cc1
→ -35	0.5%	1%	32µM*	-32%	-0.8	-14
> O=C(c1ccccc1)N1CCN(S(=O)(=O)c2ccccc2)CC1
→ -8	-0.2%&0.2%	3%	13%	-24%	8.3	-1
> Cc1cc2oc(=O)cc(CN3CCN(Cc4ccc5c(c4)OCO5)CC3)c2cc1C
→ -12	-1.7%	-19%	5%	32%	1.2	5
> COc1ccc(OC)c2cc3ccccc3cc12
→ 18	-7.2%	6%	x	u	x	x
> COc1ccc(NC(=O)c2ccccc2NS(=O)(=O)c2ccc(C)cc2)c([N+](=O)[O-])c1
→ -11	0.2%	-18%	10%	-21%	7.7	-4
> CCOc1ccc(C(=O)NC(C(=O)NCC2CCCO2)C(C)C)cc1 (stereo unspecified)
→ -6	x	3%	-10%	3%[15.4 µM]	2.4	u
> COc1ccccc1C(=O)Nc1cccnc1
→ -9	x	5%	20%	18%[15.4 µM]	-0.7	0
> CC(=O)Nc1ccc(NC(=O)c2c(-c3ccccc3Cl)noc2C)c(C)c1
→ 7	u	-3%	8%	17%	x	1
> COc1cc(C2c3sc(=O)[nH]c3SC3C(=O)N(c4ccc(Br)cc4)C(=O)C32)ccc1O (stereo unspecified)
→ 1	0.0%	u	-28%	-23%	u	2
> CC(C(=O)Nc1cccc([N+](=O)[O-])c1)N1CCN(C/C=C/c2ccccc2)CC1 (stereo unspecified)
→ -20	-4.8%	-2%	-22%	-15%	5.6	3
